High-throughput results: PubChem, National Center for Advancing Translational Sciences (NCATS)
miR-21 reporter: qHTS Assay for Modulators of miRNAs and/orActivators of miR-21. HeLa miR-21 FLuc reporter, luciferase, 48 h. Potency, µM (doses to about 38.3 µM), without a hit: at the highest dose reporter change, positive = more light. 340,000 tested, under 10 active; active = well fitted rising curve with a large enough effect; inconclusive = small, poorly fitted or top-dose-only effect; inactive = no such curve, though single readings can be large or run the other way;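 note: % of control where 0% means no effect; miR-21 action dims this reporter so a rising signal means less miR-21 action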
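Luminescence from a firefly luciferase reporter carrying a miR-21 binding site downstream, stably expressed under a CMV promoter in HeLa cells that make miR-21 endogenously, reports miRNA modulation after 48 h compound exposure up to approximately 40uM final.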
GLA inh pH 4.5: qHTS Assay for Inhibitors of Human alpha-Galactosidase at pH 4.5. Alpha-galactosidase A (Homo sapiens), P06280. purified enzyme, 4-MU-alpha-Gal fluorescence, pH 4.5. activity change, negative = inhibition, % at 105 µM. 230,000 tested, under 10 active. AID 1467, 2008; inconclusive = small, poorly fitted or top-dose-only inhibition, or a rising curve; inactive = flat fitted curve, though single readings scatter; no compound was filed as active;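 note: 0% = full activity with enzyme and -100% = basal without enzyme; dose as in the result columns while the protocol names 77 µM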
Target sequence (P06280 whole entry, looked up): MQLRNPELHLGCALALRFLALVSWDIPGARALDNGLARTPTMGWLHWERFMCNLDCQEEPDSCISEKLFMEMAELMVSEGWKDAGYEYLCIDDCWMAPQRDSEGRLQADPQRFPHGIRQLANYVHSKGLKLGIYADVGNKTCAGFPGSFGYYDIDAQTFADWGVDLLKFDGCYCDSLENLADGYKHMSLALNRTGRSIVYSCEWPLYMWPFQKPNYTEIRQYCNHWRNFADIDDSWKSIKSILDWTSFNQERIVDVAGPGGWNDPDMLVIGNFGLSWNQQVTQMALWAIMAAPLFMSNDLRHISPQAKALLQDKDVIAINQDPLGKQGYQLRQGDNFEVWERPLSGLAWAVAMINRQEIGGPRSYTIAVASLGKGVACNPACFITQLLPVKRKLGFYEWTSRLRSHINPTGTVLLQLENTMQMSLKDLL
Rango complex inh: qHTS Assay for Inhibitors of Rango (Ran-regulated importin-beta cargo) - Importin beta complex formation. 340,000 compounds, 0.031% hits. Rango CFP/YFP FRET sensor + importin beta, 45 min. Importin subunit beta-1 (Homo sapiens), Q14974. Potency, µM (titrated, usually from 92.2 µM), for the others: at the highest dose inhibition of complex formation; active = rising FRET ratio curve, often small or poorly fitted; inconclusive = mostly compound fluorescence or quenching in the first reads; inactive = flat curves in all reads;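 note: potency is the fitted concentration of half-maximal effect; 0% = DMSO wells and 100% = buffer wells lacking importin beta; nearly all actives have a fitted effect of over 15% in size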
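Inhibition scored from the CFP 486 nm/YFP 530 nm FRET ratio 45 min after adding 0.125 microM importin beta to 50 nM Rango biosensor preincubated 5 min with compound (room temperature, PBS with DTT, Tween-20, BSA). No-importin wells as positive control.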
Rango dissoc inh: qHTS Assay for Inhibitors of RanGTP induced Rango (Ran-regulated importin-beta cargo) - Importin beta complex dissociation | Snurportin-1 (Homo sapiens) + GTP-binding nuclear protein Ran (Homo sapiens) + Importin … | Biochemical FRET Rango-importin beta, RanGTP-induced dissociation | Potency, µM (titrated, usually from 46.1 µM), inactives show top-dose activity change, negative = inhibition | 340,000 compounds, 0.071% hits | AID 540253, 2011; active means falling FRET ratio curve, often poorly fitted, with flat reads before Ran was added; inconclusive means other falling curves, or compound fluorescence or quenching; inactive means flat or rising ratio curve;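 note: potency is the fitted concentration of half-maximal effect; % of control where 0% means no effect; nearly all actives have a fitted effect of over 45% in size; -100% = wells without RanGTP and RCC1; the record marks most hits as doubtful in a second field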
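Rango/importin beta premix (0.1/0.25 uM final), PBS + 1 mM DTT + 0.02% Tween-20 + 0.1% BSA; cpd 5 min RT; FRET pre-read; + RanGTP-RCC1 (0.6 uM Ran, 2 mM GTP, 0.2 uM RCC1); 45 min RT; FRET post-read, ex 430, em 486/530 nm.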
* marks the source's active call; other numbers are inactive results.

The first two records, to show the layout:
What do the screens show for `Cc1ccccc1NC(=O)COc1ccc2c(c1)OC(C)(C)CC2=O`?
miR-21 reporter: -44.9%; GLA inh pH 4.5: -1.4; Rango complex inh: 0.8%; Rango dissoc inh: 10.8%

Results for COCCCN(C(=S)NC(=O)C12CC3CC(CC(C3)C1)C2)c1c(N)n(Cc2ccccc2)c(=O)[nH]c1=O ?
miR-21 reporter: -11.1%; GLA inh pH 4.5: 7.1; Rango complex inh: 2.6%; Rango dissoc inh: -0.8%

The list itself, from the first entry:
What do the screens show for `Cc1ccccc1NC(=O)COc1ccc2c(c1)OC(C)(C)CC2=O`?
miR-21 reporter: -44.9%; GLA inh pH 4.5: -1.4; Rango complex inh: 0.8%; Rango dissoc inh: 10.8%

Results for COCCCN(C(=S)NC(=O)C12CC3CC(CC(C3)C1)C2)c1c(N)n(Cc2ccccc2)c(=O)[nH]c1=O ?
miR-21 reporter: -11.1%; GLA inh pH 4.5: 7.1; Rango complex inh: 2.6%; Rango dissoc inh: -0.8%

How did Cn1nc(C(=O)Nc2cccc(Cl)c2)cc1C(=O)Nc1cccc(Cl)c1 do in these assays?
miR-21 reporter: 4.8%; Rango complex inh: -0.7%; Rango dissoc inh: inconclusive

Results for O=C(NCC1CCCO1)c1cc(C(=O)C2CC2)c[nH]1 (centres undefined) ?
miR-21 reporter: -12.6%; GLA inh pH 4.5: 3.1; Rango complex inh: 3.7%; Rango dissoc inh: 9.0%

Results for Cc1noc(C)c1COc1ccc(C(=O)N2CCN(S(=O)(=O)c3cccc(F)c3)CC2)cc1 ?
Rango complex inh: -2.5%; Rango dissoc inh: 4.7%

Results for COc1cc(SC)ccc1C(=O)OC1CCOC1=O (centres undefined) ?
miR-21 reporter: -3.2%; GLA inh pH 4.5: -15.1; Rango complex inh: -2.1%; Rango dissoc inh: 3.2%

Results for O=C(COC(=O)C1CCCCC1)Nc1ccc(N2CCCCC2)cc1 ?
miR-21 reporter: -16.6%; GLA inh pH 4.5: -2.9; Rango complex inh: 1.7%; Rango dissoc inh: 1.3%

What do the screens show for `Cc1oc(-c2ccccc2Cl)nc1CS(=O)CC(=O)NC1CC1` (centres undefined)?
miR-21 reporter: -8.4%; Rango complex inh: 5.7%; Rango dissoc inh: -7.7%

Results for COc1ccc(OCCn2ccnc2C)cc1 ?
miR-21 reporter: -3.5%; Rango complex inh: 2.2%; Rango dissoc inh: 40.7%

How did CS(=O)(=O)N1CC2CCCN2c2ccc(C(F)(F)F)cc21 (centres undefined) do in these assays?
miR-21 reporter: -2.6%; GLA inh pH 4.5: -7.2; Rango complex inh: 0.4%; Rango dissoc inh: -7.7%

Results for COc1ccc(OC)c(NC(=O)Nc2cc(NC(=O)Nc3cc(OC)ccc3OC)c(C)nc2C)c1 ?
miR-21 reporter: -30.2%; GLA inh pH 4.5: 8.5; Rango complex inh: -0.8%; Rango dissoc inh: 1.0%

How did COc1ccc(C(=O)Nc2ccnn2C2CCN(Cc3cccnc3)CC2)cc1 do in these assays?
miR-21 reporter: -0.2%; Rango complex inh: inconclusive; Rango dissoc inh: 5.9%

What do the screens show for `O=C(Nc1nc(-c2cccc([N+](=O)[O-])c2)cs1)C(c1ccccc1)c1ccccc1`?
miR-21 reporter: 2.6%; GLA inh pH 4.5: 0.1; Rango complex inh: 4.9%; Rango dissoc inh: -0.4%

How did O=C(Nc1ccnn1C1CCN(Cc2ccc(CO)o2)CC1)c1ccc2c(c1)OCO2 do in these assays?
miR-21 reporter: -5.3%; Rango complex inh: -1.9%; Rango dissoc inh: -22.1%

Results for COc1ccccc1CN(C(=O)c1ccco1)C(C(=O)NC1CCCC1)c1ccncc1 (centres undefined) ?
miR-21 reporter: -2.7%; GLA inh pH 4.5: -1.3; Rango complex inh: inconclusive; Rango dissoc inh: -21.5%

How did Cc1nc2ccc(S(=O)(=O)NCC(=O)NCc3ccc4c(c3)OCO4)cc2s1 do in these assays?
miR-21 reporter: -10.8%; GLA inh pH 4.5: -5.8; Rango complex inh: 3.2%; Rango dissoc inh: -0.9%

Results for C=CCn1c(CNS(=O)(=O)c2ccc(Br)cc2)nnc1SC ?
miR-21 reporter: -3.5%; Rango complex inh: -0.2%; Rango dissoc inh: -2.3%

Results for CC(C)CCNC(=O)[C@H](CSCc1ccccc1)N1Cc2ccccc2C1=O ?
miR-21 reporter: -7.5%; GLA inh pH 4.5: -3.5; Rango complex inh: inconclusive; Rango dissoc inh: 12.6%

Results for CCn1ncc(Br)c1C(=O)Nc1cc(C)ccc1F ?
miR-21 reporter: -4.1%; GLA inh pH 4.5: 6.9; Rango complex inh: -1.5%; Rango dissoc inh: -7.9%

Results for CO/N=C/C(NC(=O)c1ccc(C(F)(F)F)cc1)C(=O)OC (centres undefined) ?
miR-21 reporter: -9.9%; GLA inh pH 4.5: -4.8; Rango complex inh: -2.5%; Rango dissoc inh: -5.0%

Results for COc1cc(C(=O)N2CCC(c3nc(-c4cccnc4)no3)CC2)cc(OC)c1OC ?
miR-21 reporter: -0.7%; GLA inh pH 4.5: 6.6; Rango complex inh: 0.4%; Rango dissoc inh: 14.5%

What do the screens show for `O=C1c2ccccc2C(=O)N1Cc1cccnc1`?
miR-21 reporter: 0.0%; GLA inh pH 4.5: 7.3; Rango complex inh: 1.6%; Rango dissoc inh: -5.5%

Results for NS(=O)(=O)c1ccc(C(=O)O)cc1 ?
miR-21 reporter: -1.0%; GLA inh pH 4.5: 6.2; Rango complex inh: 0.2%; Rango dissoc inh: 1.9%

Results for Cc1cccc(C)c1NC(=O)CN(C)S(=O)(=O)c1ccc(-c2ccc(=O)[nH]n2)s1 ?
miR-21 reporter: -12.7%; Rango complex inh: -0.3%; Rango dissoc inh: 1.0%

What do the screens show for `COc1cc(C2/C(=C(/O)c3ccccc3)C(=O)C(=O)N2c2ccccn2)ccc1O` (centres undefined)?
miR-21 reporter: 3.0%; GLA inh pH 4.5: -4.2; Rango complex inh: -2.0%; Rango dissoc inh: -14.9%

How did O=C(CC1C(=O)NCCN1Cc1ccccn1)NCCc1ccccc1F (centres undefined) do in these assays?
miR-21 reporter: -10.4%; Rango complex inh: inconclusive; Rango dissoc inh: -12.5%

Results for O=C1c2ccccc2C(=O)c2c1cccc2-n1nnc2ccccc21 ?
miR-21 reporter: -0.6%; GLA inh pH 4.5: 3.4; Rango complex inh: 0.9%; Rango dissoc inh: -1.9%

Results for CC(=O)Oc1cccc(N2C(=O)C3C4C=CC(C4)C3C2=O)c1 (centres undefined) ?
miR-21 reporter: -1.0%; GLA inh pH 4.5: 8.3; Rango complex inh: -6.6%; Rango dissoc inh: -3.1%

What do the screens show for `Cc1nc(Cl)c2c(n1)NC1=C(O2)C(=O)CCC1`?
miR-21 reporter: -1.0%; GLA inh pH 4.5: -9.6; Rango complex inh: inconclusive; Rango dissoc inh: inconclusive

Results for Cc1cc(C)n2nc(C(=O)OCC(=O)NCc3ccccc3)nc2n1 ?
Rango complex inh: 10.9%; Rango dissoc inh: 2.0%

How did Cc1ccc(NC(=O)CNc2ccccc2CN(C)C2CCCCC2)cc1 do in these assays?
miR-21 reporter: -7.0%; GLA inh pH 4.5: -6.6; Rango complex inh: -0.2%; Rango dissoc inh: 16.8%

Results for O=C(O)c1ccc2c(c1)C(=O)N(CCc1ccccc1)C2=O ?
miR-21 reporter: -7.5%; Rango complex inh: -2.3%; Rango dissoc inh: 4.8%

What do the screens show for `O=C(O)c1nn(CC(=O)N2CCN(S(=O)(=O)c3ccc(Cl)cc3)CC2)c(=O)c2ccccc12`?
miR-21 reporter: 1.8%; GLA inh pH 4.5: 1.9; Rango complex inh: 0.7%; Rango dissoc inh: -10.4%

Results for O=C(N=C1c2ccccc2CN1c1ccccc1)c1cccc([N+](=O)[O-])c1 ?
miR-21 reporter: -33.5%; GLA inh pH 4.5: -0.4; Rango complex inh: 0.5%; Rango dissoc inh: 1.4%

How did CCn1c(CC(=O)Nc2ccccc2)nnc1SCC(=O)Nc1nncs1 do in these assays?
miR-21 reporter: 3.2%; Rango complex inh: -2.5%; Rango dissoc inh: 1.8%

What do the screens show for `CCc1nc(NCCN2CCOCC2)c2oc3ccccc3c2n1`?
miR-21 reporter: -5.1%; GLA inh pH 4.5: -5.3; Rango complex inh: -1.5%; Rango dissoc inh: 1.0%

Results for Cc1cccc(NC(=O)Cn2c(C)c(C#N)c3ccccc32)c1C ?
miR-21 reporter: 8.5%; GLA inh pH 4.5: 3.6; Rango complex inh: 0.1%; Rango dissoc inh: -6.1%

What do the screens show for `COc1ccc(C)c2sc(=NC(=O)c3cccc(N4C(=O)CCC4=O)c3)n(C)c12`?
miR-21 reporter: 4.3%; GLA inh pH 4.5: 12.0; Rango complex inh: 4.5%; Rango dissoc inh: -6.6%

Results for S=C(Nc1ccc2c(c1)OCO2)Nc1ccc2c(c1)OCO2 ?
miR-21 reporter: -56.0%; GLA inh pH 4.5: -5.6; Rango complex inh: 2.2%; Rango dissoc inh: -8.3%

Results for Cc1ccc(/C=N\NC(=O)C2CC(=O)N(c3ccccc3)C2)o1 (centres undefined) ?
miR-21 reporter: -8.8%; GLA inh pH 4.5: inconclusive; Rango complex inh: 1.0%; Rango dissoc inh: 1.0%

How did O=C(Cn1cnc2c(nnn2Cc2ccccc2)c1=O)N1CCCc2ccccc21 do in these assays?
miR-21 reporter: -8.7%; GLA inh pH 4.5: 2.2; Rango complex inh: -3.4%; Rango dissoc inh: -3.7%

How did COc1ccc(OC)c(-c2csc(NC(=O)Cc3ccc(F)cc3)n2)c1 do in these assays?
miR-21 reporter: 1.3%; Rango complex inh: -1.5%; Rango dissoc inh: 0.0%

Results for O=S(c1ccc2ccccc2c1)c1cnns1 (centres undefined) ?
miR-21 reporter: 26.0%; GLA inh pH 4.5: 1.4; Rango complex inh: -1.3%; Rango dissoc inh: 7.1%

Results for CCCN(CCC)CCCNC(=S)Nc1ccc2nc(N3CCN(CC)CC3)cc(C)c2c1 ?
miR-21 reporter: -18.5%; GLA inh pH 4.5: -7.8; Rango complex inh: 0.0%; Rango dissoc inh: -9.8%

What do the screens show for `CC(C)c1nnc(NC(=O)C2CCCN2C(=O)Nc2ccccc2[N+](=O)[O-])s1` (centres undefined)?
miR-21 reporter: 4.6%; GLA inh pH 4.5: -1.9; Rango complex inh: -0.3%; Rango dissoc inh: -4.4%

How did Nc1ncnc2c1ncn2[C@@H]1O[C@H](CNC(=O)[C@@H](N)C2CCCCC2)[C@@H](O)[C@H]1O do in these assays?
Rango complex inh: 0.4%; Rango dissoc inh: 25.9%

What do the screens show for `O=C(COc1ccccc1Cl)NCc1ccccc1`?
miR-21 reporter: -51.9%; Rango complex inh: -2.5%; Rango dissoc inh: -1.5%

What do the screens show for `O=C(NCc1cccs1)C1CCCN1C(=O)Nc1ccccc1` (centres undefined)?
miR-21 reporter: -1.8%; GLA inh pH 4.5: -6.4; Rango complex inh: 0.4%; Rango dissoc inh: 15.9%

How did CC(=O)N1C2CCCCC2S[C@H]2CCCCC21 (some centres undefined) do in these assays?
miR-21 reporter: -7.2%; GLA inh pH 4.5: 4.1; Rango complex inh: 6.5%; Rango dissoc inh: -8.5%

What do the screens show for `Cc1nc(NC2=NCN(Cc3cccnc3)CN2)nc2c(C)cccc12`?
miR-21 reporter: 3.0%; GLA inh pH 4.5: 5.7

Results for O=C1c2ccccc2C(=O)N1CCCCN(C(=O)c1cc2ccccc2oc1=O)c1ccc(Cl)cc1 ?
miR-21 reporter: -7.1%; GLA inh pH 4.5: -6.6; Rango complex inh: -4.4%; Rango dissoc inh: 18.8%

How did O=C(O)C1CCCN1S(=O)(=O)c1cccc2nsnc12 (centres undefined) do in these assays?
miR-21 reporter: 1.8%; GLA inh pH 4.5: 2.5; Rango complex inh: 1.5%; Rango dissoc inh: 0.9%

These rows are one share of the data; the hit share may differ from the screen's.
